Bioassay records (PubChem BioAssay)
VDR inh: blocks the human vitamin D receptor. Potency, µM, inactives show max response, negative = inhibition, hits mostly inhibitors. VDR-SRC2-3 peptide fluorescence polarization, 2 h. AID 504847. P11473. hit rate 0.93% among 400,000; active = well fitted inhibition curve with a large enough effect; inconclusive = small, poorly fitted or top-dose-only effect, or another doubt; inactive = no such curve, though single readings can be large or run the other way; also: series mostly up to about 120 µM
Target sequence (P11473 whole entry, looked up): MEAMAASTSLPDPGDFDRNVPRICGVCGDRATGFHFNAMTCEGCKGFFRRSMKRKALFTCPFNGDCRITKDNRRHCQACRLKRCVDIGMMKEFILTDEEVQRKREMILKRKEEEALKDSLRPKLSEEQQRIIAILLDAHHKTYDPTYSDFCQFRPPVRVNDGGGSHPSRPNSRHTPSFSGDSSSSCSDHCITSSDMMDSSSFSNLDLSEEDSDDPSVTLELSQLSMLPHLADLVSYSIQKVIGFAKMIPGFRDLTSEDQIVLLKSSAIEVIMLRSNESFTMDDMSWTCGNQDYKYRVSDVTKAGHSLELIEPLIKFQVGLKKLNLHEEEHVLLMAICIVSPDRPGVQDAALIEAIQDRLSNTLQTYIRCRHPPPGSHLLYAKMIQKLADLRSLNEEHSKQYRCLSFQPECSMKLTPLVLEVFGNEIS
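Measured by FP: displacement of SRC2-3 coactivator peptide from VDR by library compounds, following a two-hour ambient incubation.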
* = called active by the depositor; ? = inconclusive; & = joins results of further samples. % is scaled to controls: 0 for no effect and ±100 for the full control effect; potency is read from the fitted curve at half-maximal effect.

SMILES	VDR inh
O=C(OCC1OC(Oc2ccc(O)cc2)C(O)C(O)C1O)c1ccccc1 (stereo not drawn)	-11%
N#CC1(N2CCN(C(=O)c3ccccc3)CC2)CCCCC1	13%
COc1cc(C(=O)Oc2c(OC)cc(C(=S)N3CCOCC3)cc2OC)cc(OC)c1OC	-1%
CN(C(=O)COC(=O)c1cccc(S(=O)(=O)N(C)c2ccccc2)c1)C1CCCCC1	17%
CCc1nc2ccccc2c(C(=O)Oc2ccc(C(=O)OC)cc2)c1C	13%
O=C(N/C(=C/c1cccc([N+](=O)[O-])c1)C(=O)N1CCCC1)c1ccccc1	-5%
NC(=Nc1ccccc1)NC(=O)c1nc(Cl)c(N)nc1N	0%&-8%&10%&3%
CCc1cc(=O)oc2c(CNCc3ccccc3F)c(O)c(Cl)cc12	-17%
CCCCN(CC)CCNC(=S)Nc1ccc2nc(N3CCN(C)CC3)cc(C)c2c1	3%
c1cncc(CNc2cc(-c3ccoc3)ncn2)c1	22µM*
Cc1nc(-c2ccc(C(=O)Nc3ccc(F)cc3)cc2)cs1	15%
Cc1cc(C)n(-c2cc(Cl)cc(Cl)c2)c(=O)c1C#N	-11%
S=c1[nH]nc(COc2ccccc2)n1/N=C/c1ccccc1Br	-19%
CCN1C=C(C(=O)c2ccccc2)C(=O)CC1	-17%
O=C(CC1S/C(=N/N=C2CCCCCC2)NC1=O)Nc1ccccc1C(F)(F)F (stereo not drawn)	-10%
CCCc1nn(C)c(C(=O)Nc2ccc(CC)cc2)c1Cl	-2%
COc1ccc(NS(=O)(=O)c2ccc(NC(=O)c3ccccc3Br)cc2)nn1	3%
CCc1ccccc1NC(=O)c1nc2nc(C)cc(C(F)F)n2n1	-9%
O=C(Nc1cccc(S(=O)(=O)N2CCCC2)c1)c1ccco1	-7%
O=C(O)CCc1ccc(-c2cccs2)n1NC(=O)c1ccc(Cl)cc1	6%
O=C(O)c1cccc(/C=C2/C[C@@H]3[C@@H](/C=C/[C@@H](O)C4CCCCC4)[C@H](O)C[C@@H]3O2)c1	-8%
C=CCn1c(SCC(=O)NC(N)=O)nnc1-c1cc2c(s1)CCC(CC)C2 (stereo not drawn)	-10%
CN(C)c1ccc(-n2cccc2/C=C/[N+](=O)[O-])cc1	35µM*
COc1cc(NC(=O)c2ccc(OCc3c(C)noc3C)c(OC)c2)cc(OC)c1	29%
CCn1cc(CN2CCC(n3nccc3NC(=O)c3ccc4c(c3)OCO4)CC2)c(C)n1	9%
Cc1ccc(NCc2nc3ccccc3n2CCOc2ccccc2)cc1	-7%&-15%
COc1ccc(-n2c(-c3cnccn3)n[nH]c2=S)cc1	-9%
COc1ccccc1CN1CCC2(CCNCC2)CC1	-14%
COc1ccc(-c2ccc(CCC(=O)O)n2-c2ccc(O)cc2)cc1	12%
CNCc1ccccc1Sc1ccc(OC)cc1	-4%
Cc1ccc(CNc2ncc(-c3ccccc3)n2C)o1	1%
Cc1ccc(SCCN2CCN(C)CCC2=O)cc1	-23%&0%
O=C(CCNC(=O)Cn1cnc2ccccc2c1=O)NCCC1=CCCCC1	-10%
O=C(O)c1ccc(COCC(F)(F)F)cc1	-3%
Oc1ccc(Cl)cc1Nc1nc(NCC2CCCO2)c2ccccc2n1 (stereo not drawn)	4%
CC(C)(C)OC(=O)C[C@H]1C/C=C\C[C@@H](CC(=O)N[C@@H](CO)Cc2ccccc2)C(=O)NC[C@H](c2ccccc2)OC1=O	1%
COc1ccc(N2CCN(c3nc(C)c(C)c(=O)[nH]3)CC2)cc1	-18%
CC(CCCCCCCCC(=O)O)N(CCO)C(=O)OC(C)(C)C (stereo not drawn)	-20%
CN(C)S(=O)(=O)c1cccc(NC(=S)N2CCc3ccccc32)c1	-14%
Cc1cccc(NS(=O)(=O)c2ccc(C(C)(C)C)cc2)n1	-9%

Copied from the results shown (2 entries):
SMILES	VDR inh
CN(C)S(=O)(=O)c1cccc(NC(=S)N2CCc3ccccc32)c1	-14%
Cc1cccc(NS(=O)(=O)c2ccc(C(C)(C)C)cc2)n1	-9%

Other compounds:
SMILES	VDR inh
COc1ccccc1C(CNc1nc(C(F)(F)F)nc2ccccc12)N(C)C (stereo not drawn)	6%
COc1ccc(-n2c(COc3ccc(C)cc3)n[nH]c2=S)cc1	-1%
O=C(NCc1ccccc1)c1ccc2c(c1)N(Cc1cccc(Cl)c1)C(=O)c1ccccc1S2(=O)=O	5%
CCC(C)[C@H](NC(=O)OC(C)(C)C)C(=O)N/N=C/c1ccc2nccnc2c1 (stereo partly drawn)	14%
Cc1cc(Cl)ccc1Oc1nc(-c2ccc(F)cc2)ccc1C#N	4%
Cc1ccc2ccc(C)[n+](CCCS(=O)(=O)[O-])c2c1	-15%
CCN1CCN(C(=S)NCC(C)C)CC1	-19%
CCN(Cc1ccccc1)C(=O)C1CCC(CNS(=O)(=O)c2ccc3c(c2)CCCC(=O)N3)CC1 (stereo not drawn)	14%
CC(C)Cc1nc2ccccc2[nH]1	0%
COc1ccccc1NNC(=O)c1cccnc1Oc1ccccc1	1%
COCCCNC(=O)c1ccc(Cn2c(=O)c3ccccc3n(CC(=O)NCc3ccco3)c2=O)cc1	12%
COC(=O)c1ccc(NS(=O)(=O)c2ccc(Cl)cc2)o1	13%
O=c1cc(SCc2ccc(Cl)cc2Cl)nc[nH]1	-3%
Cc1c(C(=O)Nc2ccc(Br)cc2F)sc2ncnc(N(C)C3CCCCC3)c12	1%
CCN1CCCC1CNc1ncnc2c1[nH]c1ccc(Cl)cc12 (stereo not drawn)	-2%
COc1cc(C(=O)N2CCN(C3CCC(C)CC3)CC2)cc(OC)c1OC (stereo not drawn)	-9%
O=C(OCCOc1ccccc1Cl)c1cc(S(=O)(=O)N2CCCCC2)ccc1N1CCOCC1	3%
CC1(C)OC(=O)N(Cc2ccco2)C1(C)O (stereo not drawn)	1%
O=c1c2cn[nH]c2nc(SCc2cccc(Br)c2)n1-c1ccc(Cl)cc1	14%
Cc1cccn2cc(-c3cccc(S(=O)(=O)N4CCOCC4)c3)nc12	-22%
CC(=O)NC(NC(C)=O)c1cccc(OCc2ccccc2)c1	?
Cc1ccc(Cl)cc1-n1nnc(-c2nc(-c3ccc4c(c3)OCO4)no2)c1C	6%
CC(C)CNC(=O)C1Nc2ccccc2C2C=CCC12 (stereo not drawn)	?
NC(=O)c1nc(C(=O)N2CCN(c3ccccc3)CC2)c2ccccc2n1	-6%
O=C(OCC#CCSc1nc2ccccc2o1)c1cc2ccccc2o1	0%
O=C(COC(=O)Cc1ccc(Br)cc1)NC1CCCCC1	1%
COc1cccc(-c2cncnc2NCc2ccccc2)c1	4%
CC(=O)OC1(C(C)=O)CCC2C3CC(Cl)C4=CC(=O)CCC4(C)C3CCC21C (stereo not drawn)	-9%
O=C(NCCCO)C(=O)Nc1c2c(nn1-c1ccccc1)CSC2	5%
Cc1ccc(CNC(=O)c2cc3sccc3n2Cc2ccc(Cl)cc2)cc1	-13%
COc1cccc(NC(=O)/C=C/c2ccc(S(=O)(=O)N3CCOCC3)cc2)c1	3%
CNC(=O)COc1ccccc1C(=O)Nc1ccc2c(c1)oc1ccccc12	8%
Cc1ccc(S(=O)(=O)C/N=C(/NC(=S)N(c2ccccc2)c2ccccc2)c2ccccc2)cc1	-41%
COCCn1nnnc1CN1CCN2CCCC2C1 (stereo not drawn)	15%
COc1cccc(CNC(=O)Nc2ccc3c(c2)N(C)C(=O)c2ccccc2S3)c1	11%
O=c1c2ccccc2nc(/C=C/c2cc(Br)ccc2O)n1CCO	-9%
CC(C)(C)NC(=O)c1oc2ccccc2c1NC(=O)c1ccccc1F	4%
COC(=O)c1c(C(=O)OC)c2n(c1C)CCC2	-11%
CN1CCN(c2ccc(-c3ccnn3C(=O)Nc3ccccc3)cc2)CC1	-7%
CC(=O)N1N=C(c2ccc(C)cc2)CC1c1cn(-c2ccccc2)nc1-c1cccs1 (stereo not drawn)	4%

An excerpt of these results, with the structure last.
VDR inh | compound
? | CC(=O)NC(NC(C)=O)c1cccc(OCc2ccccc2)c1
6% | Cc1ccc(Cl)cc1-n1nnc(-c2nc(-c3ccc4c(c3)OCO4)no2)c1C
? | CC(C)CNC(=O)C1Nc2ccccc2C2C=CCC12 (stereo not drawn)
-6% | NC(=O)c1nc(C(=O)N2CCN(c3ccccc3)CC2)c2ccccc2n1
0% | O=C(OCC#CCSc1nc2ccccc2o1)c1cc2ccccc2o1
1% | O=C(COC(=O)Cc1ccc(Br)cc1)NC1CCCCC1
4% | COc1cccc(-c2cncnc2NCc2ccccc2)c1
-9% | CC(=O)OC1(C(C)=O)CCC2C3CC(Cl)C4=CC(=O)CCC4(C)C3CCC21C (stereo not drawn)
5% | O=C(NCCCO)C(=O)Nc1c2c(nn1-c1ccccc1)CSC2
-13% | Cc1ccc(CNC(=O)c2cc3sccc3n2Cc2ccc(Cl)cc2)cc1
3% | COc1cccc(NC(=O)/C=C/c2ccc(S(=O)(=O)N3CCOCC3)cc2)c1
8% | CNC(=O)COc1ccccc1C(=O)Nc1ccc2c(c1)oc1ccccc12
-41% | Cc1ccc(S(=O)(=O)C/N=C(/NC(=S)N(c2ccccc2)c2ccccc2)c2ccccc2)cc1
15% | COCCn1nnnc1CN1CCN2CCCC2C1 (stereo not drawn)
11% | COc1cccc(CNC(=O)Nc2ccc3c(c2)N(C)C(=O)c2ccccc2S3)c1
-9% | O=c1c2ccccc2nc(/C=C/c2cc(Br)ccc2O)n1CCO

Remaining list, next part:
SMILES	VDR inh
Nn1c(SCC(=O)Nc2cccc(C(F)(F)F)c2)nncc1=O	-13%
Cc1ccc(Cl)cc1N1CCN(C(=O)C2CCCN(S(=O)(=O)c3cnc[nH]3)C2)CC1 (stereo not drawn)	-8%
COc1cccc(CNC(=S)Nc2ccc(Cl)cc2C)c1	-15%
COCCN(C(=O)CCC(=O)Nc1cc(C)on1)C(C(=O)NC1CCCC1)c1ccc(C(C)C)cc1 (stereo not drawn)	8%
CCOc1ccc(CN(C)C(=O)[C@H](Cc2ccccc2)NC(=O)OCc2ccccc2)cc1OC	6%
CCOc1ccccc1NC(=O)CN1C(=O)CC(c2ccc(OC)c(OC)c2)Sc2ccccc21 (stereo not drawn)	3%
O=C(O)c1cccc2c1C(=O)c1ccc(-c3ccc(Cl)c(C(F)(F)F)c3)cc1S2(=O)=O	-18%
COc1ccc(NC(=S)N(CCN(C)C)C(C)c2ccco2)cc1Cl (stereo not drawn)	-22%
Cc1ccc2nc(C)cc(NCCO)c2c1	19%
COc1cccc(C(C)NC(=O)Nc2cc(Cl)ccc2OC)c1 (stereo not drawn)	-10%
O=C(Nc1ccc(Cl)cc1)N1CCC(c2nc(-c3ccccc3Cl)no2)CC1	-4%
COC(C(=O)C(O)C(C)O)C1Cc2cc3cc(OC4CC(OC5CC(O)C(O)C(C)O5)C(O)C(C)O4)c(C)c(O)c3c(O)c2C(=O)C1OC1CC(OC2CC(OC3CC(O)C(OC)C(C)O3)C(O)C(C)O2)C(O)C(C)O1 (stereo not drawn)	-6%
CC1CCN(c2ccc(NC(=O)c3cccc(Cl)c3)cc2C(=O)O)CC1	-1%
Cc1ccccc1-n1cc(-c2ccc(Br)cc2)nc1SCC(N)=O	6%
CN(C(=O)COC(=O)c1ccccc1C(=O)N1CCN(c2ccccc2)CC1)c1ccccc1	-1%
O=S(=O)(c1ccc(Cl)cc1)N1CCOCC1	2%
O=c1[nH]c(CN2CCN(c3ccccn3)CC2)nc2c(Br)cc(Br)cc12	3%
Cc1ccccc1NC(=O)/C=C/c1ccc([N+](=O)[O-])s1	-13%
O=C(NCc1ccccc1Cl)C1CCCN(c2nc3ccccc3n3cccc23)C1 (stereo not drawn)	6%
COc1ccc(N2CCN(S(=O)(=O)c3ccc(OC)c(-c4noc(C)n4)c3)CC2)cc1	-19%
O=C1CC(C(=O)Nc2ccc(F)cc2)S/C(=N\N=C\c2ccco2)N1 (stereo not drawn)	-1%
C=C(C)COc1ccc(-c2n[nH]c(C)c2-c2ccc(OC)cc2)c(O)c1	19%
O=C(CCNS(=O)(=O)c1cccc2nsnc12)NCc1cccs1	14%
Cc1cc(C)nc(SCc2ccc(C(=O)NN=C3C4CC5CC(C4)CC3C5)cc2)n1	-6%
O=C(COc1cccnc1[N+](=O)[O-])N1CCN(C(=O)c2ccco2)CC1	-19%
CCOc1ccc(CCNC(=O)c2cc3c(s2)-c2ccccc2OC3)cc1OCC	-9%
CCOc1ccc(C2C(C(=O)Nc3ccccc3)=C(C)Nc3nc(-c4ccccc4)nn32)cc1OC (stereo not drawn)	-4%
Cn1c(/N=C/c2cc(Cl)ccc2O)nc2ccccc21	-1%
CCOC(=O)C1(Cc2ccccc2)CCCN(Cc2ccncc2)C1 (stereo not drawn)	?
CC(=O)Oc1ccc(C)cc1N1C(=O)c2ccc(C(=O)O)cc2C1=O	-3%
CCNC(=O)COC(=O)/C=C/c1cccc([N+](=O)[O-])c1	-13%
CCOc1cc(-c2noc(N)c2C(=O)OC)cc(OCC)c1OCC	-2%
CCOC(=O)c1[nH]cnc1C(=O)NCc1ccccc1	-6%
CCOC(=O)CN1CC23C=CC(O2)C(C(=O)NC2CCCC2)C3C1=O (stereo not drawn)	-7%
COC(=O)CC1(C(=O)OC)Oc2ccc(Br)cc2C(=O)N1c1ccc(Br)cc1Cl (stereo not drawn)	-10%
CCS(=O)(=O)c1c(S(=O)(=O)CC)c2cc(C(C)(C)C)ccn2c1C(=O)c1ccc(F)cc1	-9%
CCN(C(=O)c1cc2ccccc2oc1=O)c1cccc(C)c1	-12%
COc1ccc(C2=NOC(C(=O)NC(C)C)C2)cc1 (stereo not drawn)	-18%
COc1ccc(N(CCC#N)S(=O)(=O)c2ccc(Cl)cc2)cc1	-7%
CCN(C(=O)COC(=O)CNC(=O)c1ccc(C)s1)c1ccccc1	9%
O=C(COc1ccccc1)NC(=S)Nc1cccc([N+](=O)[O-])c1	-14%
Cc1cccc(C)c1NC(=O)COC(=O)c1cc(=O)c2ccccc2o1	?
Cn1c(=O)c2c(c3ccccc31)OC(=O)CC2c1cccc(F)c1 (stereo not drawn)	1%
CCC(C)NCCCCOc1cc(C)cc(C(C)C)c1 (stereo not drawn)	-6%
CCCc1cc(=O)oc2c(C)c(OCC(=O)N3C[C@H]4C[C@@H](C3)c3cccc(=O)n3C4)ccc12	5%
CCOC(=O)C(=O)CC(=O)c1ccc2c(c1)OCCO2	-13%

These rows are one share of the data; count on the stated rates, not on these rows.
